Screening results: PubChem BioAssay, Fisher Drug Discovery Resource Center
NPYLR7 ag: agonists of mosquito NPYLR7 receptor, primary screen, cell-based, Aedes aegypti, calcium fluorescence, mosquito biting behavior. HEK293T NPYLR7/Galpha15, GCaMP6s calcium fluorescence. activation, % at 10 µM. 0.15% of 270,000 active. AID 1259423, 2018; in the data active = activation above about 40%;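 note: 0% = vehicle and 100% = reference agonist at the receptor; some compounds past the cut are filed as inactive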
NPYLR7 ag max-min: further read-out of NPYLR7 ag, marked with its call; activation, %; measured here: Max-Min RFU normalised activation; some inactives read as strong as hits;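 span of the calcium signal over five minutes; 0% = vehicle and 100% = native peptide agonist; compound fluorescence can raise it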
The depositor's hits bear a star; & = joins results of further samples.

structure	NPYLR7 ag	NPYLR7 ag max-min
Cc1ccc(Cl)c(NC(=O)N2CCN(c3ncccc3C(=O)NCC3CCCO3)CC2)c1 (stereo not given)	8.8	6.6
O=C(NC1CCS(=O)(=O)C1)c1cnc(Cc2ccccc2)s1 (stereo not given)	-20.2	-20.7
O=C(C1CCCC1)N1CCN(Cc2ccc(-c3noc(-c4cccc(Cl)c4)n3)cc2)CC1	7.1	1.5
COc1cc2c(cc1OC)C(CNC(=S)NC1CC1)N(Cc1ccc(F)cc1)CC2 (stereo not given)	6.9	20.7
O=C(NCCc1cnc[nH]1)c1ccc2oc(-c3ccc(C(F)(F)F)cc3)nc2c1	2.7	-1.0
O=C(O)CC(C(=O)O)N1C(=O)/C(=C/c2ccc(Cl)cc2)SC1=S (stereo not given)	-2.4	-1.1
COc1ccc(NC(=O)C(=O)Nc2ccc(C(N)=O)cc2)cc1N1CCCC1=O	10.1	4.8
Cc1nn(-c2ccc(Nc3ccc(NC(=O)c4ccc5c(c4)OCO5)cc3)nn2)c(C)c1C	-4.8	-9.5
COc1ccc(OC)c(S(=O)(=O)N2CCN(c3cc(S(=O)(=O)NCCc4ccc(F)cc4)ccc3OC)CC2)c1	23.6	16.4
O=C(c1cccc(Cl)c1)N1CCC(n2c(Cc3ccccc3)nc3ccccc32)CC1	3.2	-0.5
O=C(NC(C(=O)N1CCCC1)C1CCN(C(=O)C2CCCC2)CC1)c1cccs1 (stereo not given)	4.4	11.2
C=CCSc1nnc(Cn2c(=O)sc3ccccc32)n1C	10.1	9.5
COc1c(Cl)cc2sc(C(=O)NCCCN(C)C)c(Cl)c2c1OC	-4.2	-3.6
CN1CCN2CCN(C(=O)NC(C)(C)CC(C)(C)C)CC2C1 (stereo not given)	-3.4	-3.3
O=C(CC(c1ccccc1)c1ccco1)NCc1cnc2ccccn12 (stereo not given)	6.7	4.3
CCOC(=O)CCn1c(=O)c2c(nc3n(C4CCCCC4)c(C)cn23)n(C)c1=O	9.6	9.9
CC(Sc1nnc(-c2ccc(Cl)cc2)n1C)C(=O)N1CCc2ccccc21 (stereo not given)	-5.4	-9.7
CCNC(=O)[C@@H]1C[C@H](N)CN1C(=O)CN1CCCCCCC1	3.4	5.0
O=C(O)CNC(=O)C(CS)Cc1ccccc1 (stereo not given)	-4.2&1.2	-7.2&0.2
COC(=O)[C@@H]1C[C@@H](O)CN1C(=O)Cc1c(C)[nH]c2c(F)cccc12	9.5	6.5
CCN1CC(CN(C)C(=O)NCc2ccoc2)Oc2ccccc21 (stereo not given)	0.8	-2.7
CCNC(=O)NCCC12CC3CC(CC(C3)C1)C2	-5.1	-14.8
CO[C@H]1O[C@@H]2O[C@@]3(C)CC[C@H]4[C@H](C)CC[C@@H]([C@H]1C)[C@@]24OO3	0.0	-6.1
O=C1c2ccc([N+](=O)[O-])cc2C(=O)N1CNc1cccc2ccccc12	-3.3	-10.5
COCCN(CC(=O)N(CCc1c[nH]c2ccccc12)Cc1ccc(OC)c(OC)c1)S(=O)(=O)c1ccc(NC(C)=O)cc1	0.5	2.2
CN(C)C(=O)c1noc2c1CN(C(=O)c1ccc(CC3CCCNC3)cc1)CC2 (stereo not given)	3.8	3.1
CN(C)CCCNc1nc2cc(-c3ccc(F)cc3)sc2c(=O)n1C	7.9	3.7
Cc1ccc(F)cc1NC(=O)N1CC(=O)N2CCc3cc(F)ccc3C2C1 (stereo not given)	29.0	18.2
Cc1nc2c(OCC(N)=O)cccn2c1N(C)C(=O)C1CCCCC1	9.2	-0.4
CCc1ccc(CNC(=O)NCC(c2ccco2)N(C)C)s1 (stereo not given)	1.4	0.1

In the list so far, these contain two or more sulfur atoms:
structure	NPYLR7 ag	NPYLR7 ag max-min
O=C(NC1CCS(=O)(=O)C1)c1cnc(Cc2ccccc2)s1 (stereo not given)	-20.2	-20.7
O=C(O)CC(C(=O)O)N1C(=O)/C(=C/c2ccc(Cl)cc2)SC1=S (stereo not given)	-2.4	-1.1
COc1ccc(OC)c(S(=O)(=O)N2CCN(c3cc(S(=O)(=O)NCCc4ccc(F)cc4)ccc3OC)CC2)c1	23.6	16.4
C=CCSc1nnc(Cn2c(=O)sc3ccccc32)n1C	10.1	9.5

Next part.
structure	NPYLR7 ag	NPYLR7 ag max-min
COc1ccc(-c2ccc(SCC(=O)NC3CCCC3)nn2)cc1OC	0.1	0.1
COc1ccc(CN(Cc2ccc(F)cc2)Cc2nc(C(=O)NCCc3ccccn3)co2)cc1	24.1	24.1
CCC(CC)C(CNC(=O)C1=NCC(=O)N(c2ccc(C)cc2)N1)N1CCOCC1 (stereo not given)	-0.3	7.9
CCCCOC(=O)N1C[C@@H](CO)[C@@H]2Oc3ccc(Cl)cc3[C@@H]21	-2.9	6.1
COC(=O)c1cc(C(=O)OC)cc(N2C(=O)C3Cc4cc(OC)c(OC)cc4CN3C2=S)c1 (stereo not given)	-3.0	-7.6
CCOC(=O)c1ccc(-n2c(C)cc(C=C3C(=O)NC(=S)NC3=O)c2C)cc1	-3.5	3.0
Cc1[nH]c2ccccc2c1/C=N\Nc1nc(N2CCOCC2)nc(N2CCOCC2)n1	-0.1	-4.8
COCC(C)NC(=O)/C=C/c1cc(C)n(-c2ccccc2)c1C (stereo not given)	1.7	0.2
COc1ccc(CN2C(=O)CC(C(=O)O)SC2=Nc2ccccc2)cc1 (stereo not given)	-1.8	-4.1
O=C(Cn1cnc2sccc2c1=O)NCCc1ccc(F)cc1	-7.6	-7.6
COC(=O)c1c(-c2ccccc2)c(-c2ccccc2)n[nH]c1=O	-2.2	37.6
CNc1nnc(SCC(=O)NCCCSc2ccccc2)s1	-4.0	-6.6
C1CCc2nnc(C3CCCN(Cc4nnnn4C4CC4)C3)n2CC1 (stereo not given)	-9.7	-12.6
COc1cccc(C(=O)c2c(N)c(C#N)c3ccccn23)c1	-4.7	-8.3
Cc1nc2c(OCc3ccc(C(F)(F)F)cc3)cccn2c1N(C)C(=O)C1CCCCC1	4.0	0.7
Cc1cc(C)c2nc(N(CCn3cccn3)C(=O)c3cc4ccccc4oc3=O)sc2c1	-17.8	-21.7
O=C(NCCCN1CCCC1=O)c1cc2n(n1)CCN(Cc1ccccc1Cl)C2=O	-4.1	-7.7
Cn1nc(-c2cccnc2)c2[nH]c(-c3ccccc3OC(F)F)nc21	3.7	0.1
CC(C)NC(=S)NN=CC1=CCC2CC1C2(C)C (stereo not given)	5.1	2.3
CN1CCN(C(=O)CC[C@@H]2CNC(=O)[C@@H]3C[C@H](NCc4cn(C)c5ccccc45)CN23)CC1	-1.2	-10.0
O=C(Cc1cccs1)Nc1nnc(-c2cc3ccccc3o2)o1	7.0	1.1
COc1nc(C)c(C(=O)NC(C)c2ccc(O)c(F)c2)s1 (stereo not given)	4.1	2.6
COc1ccccc1-n1c(CNC(=O)c2cccs2)nnc1SCC(=O)N1CCc2ccccc21	7.7	7.7
CC1(C)CC(OC(=O)CCC(=O)OC2CC(C)(C)NC(C)(C)C2)CC(C)(C)N1	6.8	5.8
CC1=NN(c2cccc(C(=O)O)c2)C(=O)/C1=C\c1ccco1	-3.8	-9.0
CSc1ncc(Cl)c(C(=O)N2c3ccccc3CC2C)n1 (stereo not given)	-4.3	-7.1
COc1ccc(S(=O)(=O)NCCCn2ncccc2=O)c(OC)c1	-7.8	-5.7
Nc1nn(S(=O)(=O)c2c(F)c(F)c(F)c(F)c2F)cc1-c1ccc(Cl)cc1	-20.7	-25.2
CC(=O)c1c(C)nn(CC(=O)N2CC(c3ccncc3)C2)c1C	0.4	12.7
CCOc1ccc(OCCSc2nc(N)cc(N)n2)cc1	13.2	18.2
COc1ccc(C(=O)CCC(=O)Nc2cnccc2C)cc1F	3.2	-4.5
CCCCN=C(NC(=O)c1ccc(C(F)(F)F)cc1)OCC	-6.7	-2.8
O=c1c2c3c(sc2nc2ccc(N4CCCCC4)nn12)CCCC3	14.0	4.6
CCOC(=O)N1CCC(N2CCCC(CNS(=O)(=O)c3ccc(OC)cc3)C2)CC1 (stereo not given)	15.9	3.3
O=C(Nc1ccnn1C1CCN(Cc2ccc3c(c2)Cc2ccccc2-3)CC1)c1ccccc1	-1.9	-14.9
O=C(c1ccc(CO)cc1)N1CCCC(CCc2cccc(C(F)(F)F)c2)C1 (stereo not given)	15.3	13.2
COc1cccc(-c2nc3ccccn3c2NC(=O)C(C)C)c1	-12.3	-10.1
CCN(CC)Cc1ccc(CNS(=O)(=O)c2c(C)noc2C)cc1	4.7	1.6
Cc1ccc(C(=O)Nc2ncn[nH]2)c(Cl)c1	-1.2	-3.1
N#Cc1cccc(S(=O)(=O)NC2CCCC(C(F)(F)F)C2)c1 (stereo not given)	-0.2	-2.3
CC(C)(C)C(Cn1ccnc1)NC(=O)C1(N)CC1 (stereo not given)	13.0	11.3
CC(C)OC(=O)c1c(NC(=O)COC(=O)C2=NNC(=O)CC2)sc2c1CCCC2	-2.7	-5.9
O=C(N=Nc1c(O)[nH]c2ccccc12)c1ccn[nH]1	-3.6	1.5
COc1cc(OC)cc(C(=O)N2CCN(C(C(=O)NCc3ccccn3)C3CCCC3)CC2)c1 (stereo not given)	-9.1	-0.6
COc1ccc(Cl)cc1NC(=O)CCC1CCCN(C(=O)C2=C(C)OCCO2)C1 (stereo not given)	18.9	11.6
CC(C)(C)n1nc2c(c1NC(=O)COc1ccc(F)cc1)CSC2	-4.1	-9.6
O=S(=O)(NCCN1CCCCC1)c1cc(Cl)sc1Cl	24.8	18.9
COCCOC(=O)C1=C(C)NC2=C(C(=O)CC(c3ccc(Cl)cc3)C2)C1c1ccc(OC(C)=O)cc1 (stereo not given)	-6.1	-4.7
Cc1oc(C)c(-c2ccccc2)c1C(=O)NCC(c1ccccc1)c1ccccc1	-11.4	-16.4
COc1ccc(C(O)=C2C(=O)C(=O)N(c3ccccn3)C2c2ccc(OC)cc2)cc1 (stereo not given)	2.4	5.8
CCC(Nc1cccc(OC)c1)C(=O)N1CCC(O)(c2ccc(C)cn2)CC1 (stereo not given)	-0.3	-1.2
Cc1ccccc1CNC1(c2ccc(F)cc2)CCOCC1	1.4	11.8
CCCCn1c(SCC(=O)NCCC#N)n[nH]c1=O	9.3	11.2
COc1cc(OC)nc(N=CN(C)C)n1	5.7	6.0
COC(=O)c1ccccc1COn1c(=O)c(-c2ccc(-c3ccccc3)cc2)[n+]([O-])c2ccccc21	-4.3	-7.2
O=C1CCOc2cc(-c3cc(NCc4ccccn4)nc4[nH]ccc34)ccc21	3.4	-0.1
C=CCn1c(SC(C)C(N)=O)nc2sc3c(c2c1=O)CCC(C)C3 (stereo not given)	-2.8	-3.9
CCN(CC)c1ccc(CN(CC2CCCO2)C(=O)C2CCC2)c(OS(C)(=O)=O)c1 (stereo not given)	-8.2	-3.6
Cc1cc(C(=O)N2CCC2(C)C(=O)Nc2cccc3cccnc23)nn1C (stereo not given)	7.4	5.4
O=C(CCC(=O)NC1CCCCCC1)NCc1cccc2[nH]ccc12	-3.7	-13.4

Following part.
structure	NPYLR7 ag	NPYLR7 ag max-min
Cc1ccc2nc(N(Cc3cccnc3)C(=O)c3cccs3)sc2c1	-24.1	-20.3
CC(=O)Cn1c(=O)c2c(nc3n(-c4ccccc4)c(C)c(C)n23)n(C)c1=O	5.2	-2.2
COCCn1c(SC2CCCC2)nc(C)c1C	1.8	-5.2
CCOc1ccc(-c2nc(N)ncc2Oc2ccccc2Br)c(O)c1	-2.0	-7.5
Cn1nc(CC(C)(C)C)cc1NC(=O)/C=C/c1cscn1	2.5	1.8
Cc1nc2ccccn2c(=O)c1NC(=O)CC1CCCCC1	2.8	0.8
COc1ccc(OC)c(S(=O)(=O)N2CCCSc3ccccc32)c1	1.5	-0.9
Cc1nc(NC(=O)NCc2cc3ccccc3s2)nn1C	-1.0	2.4
CC(C)CN(Cc1ccsc1)C(=O)c1ccc[nH]1	-0.5	-5.7
Cn1nc(-c2ccccc2)cc1NC(=O)CSc1nnc2ccc(C(F)(F)F)cn12	5.6	1.7
CN(CC(=O)N1CCC(Cc2ccccc2)CC1)c1nc(Cc2ccc(F)cc2)ns1	-5.1	-3.2
COC(=O)C1=C(C)NC2=C(C(=O)CCC2)C1c1ccc(OC(C)=O)c(OC)c1 (stereo not given)	-1.1	-7.3
CCOC(=O)C1CCCN(c2ncnc3[nH]ncc23)C1 (stereo not given)	4.6	2.2
CC(Oc1ccccc1F)C(=O)NCCn1nc(-c2ccccc2)ccc1=O (stereo not given)	-0.4	-1.8
O=S(=O)(c1ccc2c(c1)CCO2)N(C1CC1)C1CCCc2ccccc21 (stereo not given)	-7.5	-9.3
Cc1ccc(NC(=O)c2c([N+](=O)[O-])cnn2C)cc1C	-6.2	-11.2
COc1ccc(C(=O)C2CCCN(c3nc(C(N)=O)cs3)C2)cc1OC (stereo not given)	-2.7	-9.0
CCOC(=O)c1sc(=S)n(CC)c1NC(=O)c1ccc(Br)cc1	-7.6	-12.6
CC(C)Nc1ncc(CN2CCOC(CCc3ccccc3)C2)cn1 (stereo not given)	9.3	5.8

The list is partial; count on the stated rates, not on these rows.
